Screening data from PubChem.
GLP1R cytotox: qHTS of GLP-1 Receptor Inverse Agonists: Cytotox Screen. Potency, µM (series often up to 38.3 µM), for inactives: at the top dose activity change, negative = inhibition, usual class: inhibitors. 410,000 tested, 0.13% active. AID 624418, 2012. HEK293 cAMP-luciferase reporter cells, luminescence, 24 h;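 note: loss of luciferase light is scored as toxicity; potency is the fitted concentration of half-maximal effect; % is set by controls: 0 for no effect and ±100 for the full control effect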
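Compound-treated cells are incubated 24 hr at 37 deg C under 5% CO2 after a 12 hour attachment period, then luciferase detection reagent is added and luminescence is measured following 12 min at room temperature; lowered signal indicates toxicity.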
GLP1R inv ag: qHTS of GLP-1 Receptor Inverse Agonists (Inhibition Mode); HEK293 GLP-1R CRE-luciferase, luminescence, 24 h; GLP-1R form is constitutively active; Potency, µM (series often up to 38.3 µM), for the others: top-dose activity change, negative = inhibition, most hits filed as inhibitors; 410,000 tested, 1.6% active; AID 624417, 2012; Glucagon-like peptide 1 receptor (Homo sapiens), P43220; note: potency is the fitted concentration of half-maximal effect; % is set by controls: 0 for no effect and ±100 for the full control effect; nearly all actives have a fitted effect of over 55% in size
Target sequence (P43220 whole entry, looked up): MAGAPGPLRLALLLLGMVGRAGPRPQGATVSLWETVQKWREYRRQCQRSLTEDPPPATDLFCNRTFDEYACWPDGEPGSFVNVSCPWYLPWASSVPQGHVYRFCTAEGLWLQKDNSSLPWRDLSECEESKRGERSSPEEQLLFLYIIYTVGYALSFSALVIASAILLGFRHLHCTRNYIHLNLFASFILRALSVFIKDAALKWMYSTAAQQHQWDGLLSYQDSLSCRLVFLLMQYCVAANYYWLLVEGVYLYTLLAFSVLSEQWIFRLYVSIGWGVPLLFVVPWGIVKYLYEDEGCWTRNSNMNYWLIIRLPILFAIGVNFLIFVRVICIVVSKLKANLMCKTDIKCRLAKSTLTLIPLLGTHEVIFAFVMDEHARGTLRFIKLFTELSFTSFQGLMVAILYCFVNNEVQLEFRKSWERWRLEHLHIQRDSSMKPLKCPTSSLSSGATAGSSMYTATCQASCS
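Stable HEK293 clone (constitutively active GLP-1R + cAMP-response luciferase); 200 cells/uL plated, 12 h pre-culture, compound 24 hr, 37 deg C/5% CO2; detection reagent 12 min RT; luminescence.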
FUS suppressor: qHTS for Suppressors of FUS Proteinopathy: Primary screen using FUS-linked yeast assay | 390,000 tested, 0.24% active | Potency, µM (series often up to 76.6 µM), without a hit: top-dose growth rescue (activation), hits mostly activators | S. cerevisiae FUS-expressing, growth rescue, OD600, 24 h | AID 1347120, 2019;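 note: potency is the fitted concentration of half-maximal effect; plate controls were DMSO vehicle for no effect and reference control for full effect; nearly all actives have a fitted effect of over 55% in size; some results filed as inactive show a strong effect at the top dose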
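S. cerevisiae expressing FUS from galactose induction served as the toxicity model. Growth after 24hr at 30C, read as absorbance at 600 nm, indicates suppression of toxicity; compounds dosed at several concentrations.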
Abeta rescue: qHTS for compounds that reverse cellular toxicity of Amyloid beta (A-beta) peptide in yeast: Primary Screen | yeast expressing A-beta42, growth rescue, OD600, 48 h; response scale: 0% DMSO, 100% iron-clioquinol control | Potency, µM (doses to about 46.1 µM), for the others: top-dose growth rescue, actives largely listed as activators | 410,000 tested, 0.063% active; note: potency is the fitted concentration of half-maximal effect; nearly all actives have a fitted effect of over 55% in size
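Yeast A-beta toxicity model in growth medium with pinned compounds, 48 h at 30 C; growth read as absorbance at 600 nm. Normalized to FeCl3/clioquinol equimolar mix (positive) and DMSO (negative).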
TDP-43 yeast inh: qHTS of TDP-43 Inhibitors; TDP-43 expressing yeast growth rescue, BacTiter-Glo, 24 h; Potency, µM (doses to about 46.1 µM), for the others: at the highest dose growth rescue (activation), most hits filed as activators; 410,000 tested, 1.8% active; note: potency is the fitted concentration of half-maximal effect; % of control where 0% means no effect; nearly all actives have a fitted effect of over 50% in size
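Readout is BacTiter-Glo luminescence of cell growth, so inhibitors register as activators. TDP-43-expressing yeast at OD600=0.02 in galactose medium, after raffinose pregrowth to mid-log, were incubated with compound for 24 hr at 30 deg C.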
aSyn rescue: qHTS of alpha-syn Inhibitors | Potency, µM (highest dose often 46.1 µM), without a hit: at the top dose growth rescue (activation), actives largely listed as activators | AID 652106, 2013 | 370,000 tested, 0.14% active | Yeast expressing alpha-synuclein, growth rescue, BacTiter-Glo, 24 h; note: potency is the fitted concentration of half-maximal effect; % of control where 0% means no effect; nearly all actives have a fitted effect of over 65% in size
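Screening used galactose-induced yeast with toxic alpha-synuclein levels, exposed to compound for 24 hr at 30 deg C. Cell growth, read with BacTiter-Glo luminescence, gave the measured signal.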
MmCpn inh: Inhibitors of TCP-1 ring complex (TRiC) of Methanococcus maripaludis (MmCpn): qHTS | 330,000 tested, 0.031% active | Chaperonin Mm-Cpn (Methanococcus maripaludis) | Potency, µM (titrated, usually from 76.9 µM), inactives show at the highest dose activity, negative = inhibition, most hits filed as inhibitors | purified Mm-Cpn ATPase, ADP Transcreener TR-FRET; note: potency is the fitted concentration of half-maximal effect; % is set by controls: 0 for no effect and ±100 for the full control effect; nearly all actives have a fitted effect of over 80% in size
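Compound-treated chaperonin, 25 nM final, turns over 10 uM ATP at 37°C for 30 min following a 10 min preincubation; ADP generated competes with ADP-d2 for Eu-cryptate antibody, lowering FRET.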
Akt phos inh: HTS Assay for Inhibitors of Akt Phophorylation: Primary Screen; Neuro2A IGF-stimulated pAkt S473 HTRF, 20 min; hits give low values; activity change, % for hits at 50 µM; 360,000 tested, 0.32% active; in the data active = activity change below about -80%; inconclusive = mostly about -51% to -80%; note: % is set by controls: 0 for no effect and ±100 for the full control effect
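Neuro2A cells (4,500/well, DMEM with 0.5% FBS) were treated with compound at a single 50 µM final concentration, stimulated with 6 nM IGF for 20 min at 37 °C, and lysed. Phospho-Akt Ser473 was read by HTRF as 665/615 ratio ×10^4.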
The depositor's hits bear a star; i = inactive; ? = inconclusive; / = not tested or not shown; [ ] = another dose, or the depositor's remark. Unless noted, calls come from the whole dose curve; as a rule, active = well fitted curve in the direction sought with a large enough effect; inconclusive = small, poorly fitted or top-dose-only effect, or another doubt; inactive = no such curve, though single readings can be large; an effect the other way counts as inactive or inconclusive.

SMILES	GLP1R cytotox	GLP1R inv ag	FUS suppressor	Abeta rescue	TDP-43 yeast inh	aSyn rescue	MmCpn inh	Akt phos inh
CCOC(=O)[C@@H](C)N(C(=O)OC(C)(C)C)S(=O)(=O)N(Cc1ccccc1)[C@H](C(=O)OC)C(C)C	-4%	?	16%	1%	-11%	-27%	/	i
O=C(O)CCC(=O)N(Cc1ccccc1)Cc1ccccc1	-9%	14%	-40%	-5%	-27%	14%	-2%	i
O=S(=O)(Nc1ccc(-c2nc3cccnc3s2)cc1)c1cccs1	111%[activator]	12%	4%	3%	0%	5%	-2%	i
C[C@H](NC(=O)c1nc[nH]c1C(=O)N[C@H](C)c1ccccc1)C(=O)OC(C)(C)C	-27%	12%	39%	-2%	14%	-2%	/	i
CNC(=O)C1C(=S)NC(N)=C(C#N)C1c1ccccc1 (centres undefined)	-20%	0%	13%	-10%	-8%	-13%	2%	i
CC(=O)Nc1ccc(S(=O)(=O)N(C)CC(=O)NNc2c(F)c(F)cc(F)c2F)cc1	-3%	-2%	-2%	-7%	11%	1%	0%	i
COCCS(=O)(=O)N(Cc1ccccc1)[C@H](C(=O)OC)C(C)C	1%	-2%	-23%	1%	7%	-3%	1%	i
O=C(NC1CCCC1)C1CCN(C(=O)c2ccc(Cl)cc2Cl)CC1	13%	1%	-2%	-5%	7%	7%	-1%	i
CC1(C)CNC(=O)c2sc(N3CCOCC3)nc2C1	2%	29%	15%	-7%	-17%	-2%	/	/
O=C1CN(C(=O)CSc2nnc(C3CC3)n2-c2ccccc2)c2ccccc2N1	0%	0%	2%	-6%	-18%	0%	2%	i
COc1ccc(-c2cc(CNC(=O)CN3CCN(C)CC3)on2)cc1	-12%	-9%	0%	0%	18%	-6%	-1%	i
CCOC(=O)N1CCN(Cc2nc3cc(NC(=O)c4ccc(OC)cc4)ccc3n2C(C)C)CC1	?	?	27%	-28%	-9%	/	/	/
C=CCn1c(SCC(=O)Nc2cccnc2Cl)nnc1-c1ccccc1F	16%	17%	/	27%	-1%	-2%	-2%	i
COc1ccc(/C=N/NC(=O)CNc2c(Br)cc(C)cc2Br)c(C(=O)O)c1OC	16%	17%	2%	-5%	22%	8%	1%	i
CC(/C=N/NC(=O)CNc1n[nH]c(=O)[nH]c1=O)c1ccccc1 (centres undefined)	5%	6%	-17%	2%	24%	2%	3%	i
CCOc1ccccc1Nc1sc(C(=O)c2ccc(Cl)cc2)c(N)c1C(=O)NCCc1ccccc1	-5%	?	22%	11%	6%	/	/	/
Cn1nnnc1SCCCNCc1cc(Br)ccc1OCc1ccccc1	-19%	?	-10%	-1%	0%[9.22 µM]	/	/	/
Cc1cc2c(cc1S(=O)(=O)N(CCO)Cc1ccccc1)OCC(=O)N2	4%	10%	-11%	9%	6%	/	/	/
CC(C)CCNC(=O)[C@H](Cc1ccccc1)N1Cc2ccccc2C1=O	1%	-16%	-25%	18%	6%	9%	0%	i
CC1(C)Cc2nc(-c3ccccc3)nc(SCC(=O)N3CCOCC3)c2CO1	0%	0%	-2%	-9%	3%	8%	-1%	i

Some of these compounds in order of number of heavy atoms, largest number first:
SMILES	GLP1R cytotox	GLP1R inv ag	FUS suppressor	Abeta rescue	TDP-43 yeast inh	aSyn rescue	MmCpn inh	Akt phos inh
CCOC(=O)N1CCN(Cc2nc3cc(NC(=O)c4ccc(OC)cc4)ccc3n2C(C)C)CC1	?	?	27%	-28%	-9%	/	/	/
CC1(C)Cc2nc(-c3ccccc3)nc(SCC(=O)N3CCOCC3)c2CO1	0%	0%	-2%	-9%	3%	8%	-1%	i
O=C(O)CCC(=O)N(Cc1ccccc1)Cc1ccccc1	-9%	14%	-40%	-5%	-27%	14%	-2%	i

A few values from the entries so far:
CC(/C=N/NC(=O)CNc1n[nH]c(=O)[nH]c1=O)c1ccccc1 (centres undefined) in aSyn rescue → 2%
CCOc1ccccc1Nc1sc(C(=O)c2ccc(Cl)cc2)c(N)c1C(=O)NCCc1ccccc1 in GLP1R cytotox → -5%
C=CCn1c(SCC(=O)Nc2cccnc2Cl)nnc1-c1ccccc1F in Abeta rescue → 27%
CCOC(=O)[C@@H](C)N(C(=O)OC(C)(C)C)S(=O)(=O)N(Cc1ccccc1)[C@H](C(=O)OC)C(C)C in FUS suppressor → 16%
CNC(=O)C1C(=S)NC(N)=C(C#N)C1c1ccccc1 (centres undefined) in TDP-43 yeast inh → -8%
CC1(C)Cc2nc(-c3ccccc3)nc(SCC(=O)N3CCOCC3)c2CO1 in GLP1R cytotox → 0%
O=C(O)CCC(=O)N(Cc1ccccc1)Cc1ccccc1 in GLP1R cytotox → -9%

(further entries)
SMILES	GLP1R cytotox	GLP1R inv ag	FUS suppressor	Abeta rescue	TDP-43 yeast inh	aSyn rescue	MmCpn inh	Akt phos inh
COc1ccccc1CC(=O)Nc1ccc(-c2noc(COc3ccc(Cl)c(C)c3)n2)cc1	-8%	66%[activator]	17%	-6%	-3%	0%	-26%	i
O=C(CSc1ncnc2c1cnn2-c1ccc(F)cc1)NCc1ccc2c(c1)OCO2	3%[1.53 µM]	-17%	-1%	12%	18%	4%	-2%	i
COc1cccc(-c2cc(C(=O)Nc3cnn(Cc4ccccc4C)c3)no2)c1	1%	-1%	-4%	-2%	21%	-10%	0%	i
COC(=O)c1[nH]c(C)c(/C(O)=C2\C(=O)C(=O)N(CCN3CCOCC3)C2c2cccnc2)c1C (centres undefined)	6%	0%	21%	-17%	-34%[inhibitor]	-5%	?	/
COc1cccc(NC(=O)C2CC(=O)N(Cc3ccc(C)cc3)C2)c1 (centres undefined)	3%	?	-16%	9%	-4%	-2%	1%	i
COc1cccc(C2C(C(=O)Nc3cccnc3)=C(C)Nc3nnnn32)c1OC (centres undefined)	-17%	-10%	-5%	-32%	0%	0%	-1%	i
CC(C)N(C(=O)COC(=O)c1cccc(N(C)C)c1)c1ccccc1	-22%	4.5µM*	5%	2%	11%	5%	1%	i
O=C(Nc1ccccc1)c1cccnc1N1CCCC1	2%	1%	7%	-9%	-36%[inhibitor]	-4%	1%	i
O=C(CCS(=O)(=O)c1ccc2c(c1)NC(=O)CS2)NCCc1ccc(Cl)cc1	-12%	?	15%	17%	?	6%	1%	i
COc1cccc(-n2cc(C(=O)O)c3ccccc3c2=O)c1	-5%	0%	-8%	-16%	-2%	-4%	0%	i
CCC/C(O)=C1\C(=O)CC(C)(C)CC1=Nc1cccc([N+](=O)[O-])c1	7%	?	5%	4%	16%	0%	-1%	i
Cc1cc(C)nc(/N=C(\N)N2CCCCC2)n1	3%	20%	-12%	-13%	-11%	1%	-2%	i
CCCCCc1ccc(-c2ccc(=O)[nH]n2)cc1	7%	210%[activator]	22%	-41%[inhibitor]	18µM*	2%	0%	i
Cc1sc2ncn(CC(=O)NCCCC(=O)N3CCN(c4ccccc4)CC3)c(=O)c2c1C	-19%	5%	4%	6%	-15%	5%	1%	i
CN1CCN(CCC(=O)Nc2ccc(Br)cc2)CC1	-19%	-10%	24%	4%	0%	0%	-1%	i
CN(C)CCN(C(=O)C1CCCCC1)c1nc2cc3c(cc2s1)OCO3	3%	?	11%	1%	-2%	15%	-2%	i
CC1CCCCC1NC(=O)Cn1cnc2sccc2c1=O (centres undefined)	9%	19%	?	12%	-22%	5%	4%	i
CCN(CC(=O)Nc1c(F)cccc1F)C(=O)CNC(=O)C1CCCCC1	5%	?	2%	1%	0%	0%	1%	i
COc1cc(O)c(CC=C(C)C)c(O)c1C(=O)CCc1ccc(O)cc1	?	2.5µM*	12%	-81%[inhibitor]	?	-30%	6%	i
O=C(NCN1CCN(c2ccccc2)CC1)c1cnccn1	4%	3%	-11%	-7%	9%	-1%	2%	i
CCN(CCNC(=O)C1CCN(S(C)(=O)=O)CC1)c1ccccc1	-2%	-6%	-22%	10%	-14%	0%	0%	i
CCc1ccc(NC(=O)c2sc(-n3nc(C)c(Cc4ccc5c(c4)OCO5)c3C)nc2C)cc1	6%	7%	-3%	-25%	-2%	/	/	/
CCOCCCNc1nc2c([nH]1)c(=O)n(C)c(=O)n2C	-9%	-10%	63%	-13%	1%	-7%	-1%	i
Cn1c(SCC(=O)N2CC(=O)Nc3ccccc32)nnc1C(F)(F)F	1%	-4%	-4%	12%	16%	0%	1%	i
CC(=O)CSc1nnc(C(F)(F)F)n1C	-1%	7%	-7%	1%	-14%	1%	1%	i
O=C(CCCNS(=O)(=O)c1cccc2nsnc12)N1CCCCC1	8%	11%	4%	-24%	0%	16%	-2%	i
CC(=O)NS(=O)(=O)c1cccnc1Nc1ccc(Cl)c(Cl)c1	4%	?	1%	0%	0%	-18%	-1%	i
CC(c1ccccc1)C1CC(=O)N(C2CCCCC2)C1=O (centres undefined)	0%	5%	-4%	1%	-8%	/	2%	/
C=CCn1c(Cc2csc(N)n2)nnc1SCC(=O)Nc1ccccc1C(F)(F)F	4%	-24%	24%	1%	-31%[inhibitor]	-1%	1%	i
CC1=C(C(=O)Nc2ccccn2)C(c2cccnc2)n2nnnc2N1 (centres undefined)	5%	0%	12%	3%	-11%	0%	0%	i
COc1ccc(/C=C/C(=O)NC(=S)N2CCN(c3ccccn3)CC2)cc1	?	-19%	1%	14%	18%	1%	-2%	i
CCc1ccccc1NC(=S)N1CCCCCC1	-9%	-14%	13%	?	0%	0%	-4%	i
CCN1CCCC1CNC(=O)c1csc2c1CCCC2 (centres undefined)	1%	?	9%	-6%	-28%	4%	0%	i
Cn1nnnc1SCCCNCc1ccccc1OCc1ccc(Cl)cc1	2%	15%	2%	-11%	-2%	/	/	/
CCN(CC)CCNC(=O)Cn1nc(-c2ccc(C)cc2)ccc1=O	-2%	0%	9%	3%	-26%	4%	1%	i
Cc1n[nH]c(C)c1CCC(=O)N/N=C/C=C/c1ccccc1	1%	9%	-14%	-11%	-1%	-11%	0%	i

These rows are one share of the data. The share of hits here may be higher or lower than overall.
